Source: PubChem
Mtb H37Rv = M. tuberculosis H37Rv growth inhibitors, H37Rv strain (AID 1626) | one-dose inhibition, % at 10 µM; IC50 in µM for titrated hits | M. tuberculosis H37Rv growth inhibition; higher % means a stronger effect | 220,000 tested, 0.95% active;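 active = confirmed in a dose series; inconclusive = inhibition above 80% but not taken into the dose series; inactive = below 80% or under 30% at every dose of the series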;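 note: bacteria incubated seven days before Alamar blue readout; 0% = bacteria only wells and 100% = bacteria with antibiotic wells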
RecA intein inh = Mtb RecA intein splicing inhibition. P9WHJ3. cell-free RecA intein splicing, fluorescence. 290,000 tested, 0.75% active. inhibition, %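 (about 9 µM by stock and volumes)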; in the data active = inhibition above about 30%; inconclusive = no clear call, values can overlap the other calls;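 note: 0% = vehicle wells and 100% = reference inhibitor control wells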
Target sequence (P9WHJ3 whole entry, looked up): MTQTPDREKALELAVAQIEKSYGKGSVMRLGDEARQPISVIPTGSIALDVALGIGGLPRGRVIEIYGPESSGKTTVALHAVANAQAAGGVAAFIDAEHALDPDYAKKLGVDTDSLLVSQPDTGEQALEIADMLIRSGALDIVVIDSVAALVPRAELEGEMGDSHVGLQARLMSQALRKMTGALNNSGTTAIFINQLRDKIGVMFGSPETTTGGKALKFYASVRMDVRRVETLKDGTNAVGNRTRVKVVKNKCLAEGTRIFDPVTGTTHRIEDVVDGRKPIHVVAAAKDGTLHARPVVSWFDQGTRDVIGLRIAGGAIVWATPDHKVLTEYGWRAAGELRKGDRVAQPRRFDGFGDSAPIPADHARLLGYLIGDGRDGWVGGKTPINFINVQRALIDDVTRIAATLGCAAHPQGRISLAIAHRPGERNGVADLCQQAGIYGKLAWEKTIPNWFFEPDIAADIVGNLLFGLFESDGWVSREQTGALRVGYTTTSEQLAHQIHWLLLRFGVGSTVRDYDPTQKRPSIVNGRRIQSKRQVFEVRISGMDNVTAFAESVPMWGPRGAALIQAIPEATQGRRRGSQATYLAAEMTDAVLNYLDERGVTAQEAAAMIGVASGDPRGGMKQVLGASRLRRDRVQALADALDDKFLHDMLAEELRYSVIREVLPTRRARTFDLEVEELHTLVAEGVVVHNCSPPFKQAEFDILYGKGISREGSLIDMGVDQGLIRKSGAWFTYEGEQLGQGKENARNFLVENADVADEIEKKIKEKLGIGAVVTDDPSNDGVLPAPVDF
Arbovirus inh = arbovirus infection inhibition. arbovirus infection cell-based antiviral screen. inhibition, % at 10 µM. 200,000 tested, 0.37% active. AID 1251;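 active = inhibition from about 30%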;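 note: bluetongue infection of BSR cells; cell survival read as ATP light after 72 h; 0% = infected wells without compound and 100% = uninfected wells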
Mtb betalactam = beta-lactam sensitization of Mtb H37Rv; M. tuberculosis H37Rv growth with meropenem, percent inhibition; hits of this screen are not shown here; inhibition, % at 25 µM; 330,000 tested, 0.27% active; AID 434955;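 active = about 74% or more and at least 40 points above the plate without the antibiotic, then above 30% in a dose series; inconclusive = first-round hits that could not be retested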;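 note: growth measured after seven days incubation then overnight dye step; 0% = bacteria only wells and 100% = bacteria with antibiotic; twin plates without the antibiotic show which effects depend on it; some results filed as inactive read as strong as hits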
YopH inh = inhibitors of Yersinia enterocolitica YopH tyrosine phosphatase; 140,000 tested, 0.16% active; AID 898; inhibition, %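 (about 10 µM by stock and volumes)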; fluorescence Ex485/Em525;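 active = inhibition of 50% or more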;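 note: controls were vehicle for no effect and minimum signal wells for full effect; inactives centre near -20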
Arbovirus inh repeat = further read-out of Arbovirus inh, marked with its call; inhibition, %; measured here: 10K subset replicate screen; many hits read low in the repeat;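 first of two repeat runs on a subset; 0% = infected and 100% = uninfected wells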
* = called active by the depositor; ? = inconclusive; . = no result given. Some of the compounds tested, so the mix of outcomes need not match the whole.

SMILES	Mtb H37Rv	RecA intein inh	Arbovirus inh	Mtb betalactam	YopH inh	others
Cc1nnc(NC(=O)CSc2nnc(CCNC(=O)c3ccccc3F)n2C)s1	.	-32	.	7	.
CC(=O)Nc1ccc(C(=O)Nc2ccc(S(=O)(=O)Nc3nccc(C)n3)cc2)cc1	.	0.5	.	2	.
Brc1cccc(CNn2cnnc2)c1	.	1.7	.	-12	.
CC(C)n1c(O)c(N=NC(=O)CNC(=O)c2cccnc2)c2ccccc21	.	1.2	.	2	.
CC(C)NC(=O)COC(=O)Cn1[nH]c(=O)c2ccccc2c1=O	-1%	.	3	1	.
CC(C)Nc1nnc(SCC(=O)NCc2ccc3c(c2)OCO3)s1	-6%	-0.8	9	0	.
COc1ccc(C)cc1NC(=O)CNc1ccccc1CN(C)C1CCCCC1	-3%	2.8	6	-2	.
COc1cc(/C=N/NC2=NCCCCC2)ccc1O	-7%	-4.5	.	-10	.
Cc1cc(C)cc(NC(=O)C(Sc2ncnc3ccccc23)c2ccccc2)c1 (stereo not given)	2%	3.8	4	7	-29
CC(=O)N1CCN(CC(=O)Nc2ccc(C#N)c(Cl)c2)CC1	3%	-0.7	6	-3	.
O=C(Nc1ccc(N2CCOCC2)c(Cl)c1)c1cccnc1Cl	-3%	-0.2	2	-1	-34
CCOc1ccccc1NC(=S)NC1CC2CCC1C2 (stereo not given)	.	2.4	.	-5	.
Nc1nc(Cl)nc2ccc(Br)cc12	2%	-1.5	7	11	-35
CSCC(=O)N1CCc2ccc(NC(=O)c3ccccc3Cl)cc2C1	.	1.4	.	-3	.
O=C(Nc1ccccc1C(=O)NCc1cccnc1)c1ccccc1Cl	.	0.1	.	0	.
COc1cccc2c(=O)cn[nH]c12	-1%	-5.9	4	1	-29
O=C(Cc1n[nH]c(=O)c2ccccc12)OCC(=O)c1ccccc1Cl	.	-0.6	.	0	.
COc1ccc(N2CCN(C(=O)c3ccc4c(=O)n(CCc5ccc(OC)c(OC)c5)c(=O)[nH]c4c3)CC2)cc1	6%	-1.3	-2	0	.
Cc1noc(/C=C/N(C)C)c1S(=O)(=O)N(C)CC(=O)N1CCc2ccccc21	-2%	0.5	11	5	-53
CCOC(=O)C1=C(C)Nc2ccccc2N=C1NC(=O)c1cccc(S(=O)(=O)NCc2ccccc2)c1	-15%	1.6	-9	-11	-12
COc1ccc(C(=O)N2CCN(c3nc4ccccc4o3)CC2)cc1OC	-3%	2.4	23	-3	-36
CCCc1nnc(NC(=O)c2cc(OC)cc(OC)c2)s1	-9%	-0.8	18	-1	-15
O=C(Cn1c2ccc(F)cc2c2nc3n(c(=O)c21)CCS3)Nc1ccccc1C(F)(F)F	9%	1.0	10	-5	.
CCCN1CCN(c2ccc(S(N)(=O)=O)cc2[N+](=O)[O-])CC1	-2%	-3.4	7	-14	.
COc1ccc(-n2ncc3c(NCc4ccccn4)ncnc32)cc1	1%	-0.3	-9	?	-33
CC(C)(C)c1ccc(OCc2ccc(C(=O)N/N=C/c3ccc([N+](=O)[O-])cc3)o2)cc1	-7%	0.6	-22	16	-16
CCOc1ccc(NC(=O)c2cc3n(n2)C(C(F)(F)F)CC(c2ccco2)N3)cc1 (stereo not given)	1%	-1.1	-3	10	-3
CN1C(=O)/C(=C\C=C2/CCCN2C)N(C)C1=S	-1%	-6.7	-1	-9	.
CCC(=O)Nc1ccccc1C(=O)OCC(=O)c1ccc2ccccc2c1	-2%	0.6	-19	2	-28
COc1ccc(-c2cn[nH]c2-c2ccc(OCc3ccc([N+](=O)[O-])cc3)cc2O)cc1	10%	-20	8	-2	-17
CC12CN3CCN(CC(C3)/C1=N\NC(=O)c1ccccc1N)C2	-4%	-1.7	.	-5	.
FC(F)(F)c1cccc(NC(=S)NNC(=S)NCc2ccccc2)c1	5%	-2.2	-9	11	-32
COc1ccccc1-c1cc(C(=O)NC(C)C)no1	-7%	0.9	-6	3	-49
COc1ccccc1CNc1ncnc2cc(OC)c(OC)cc12	4%	0.5	11	-6	.
O=C(Nc1ccccc1N1CCOCC1)c1ccccc1[N+](=O)[O-]	-2%	-2.0	-4	-3	-17
COC(=O)c1cc(S(=O)(=O)N2CCCCCC2)cn1C	.	-3.4	.	-7	.
c1ccc(Nc2c(-c3ccco3)nc3ccccn23)cc1	7%	-3.4	8	2	-43
O=S(=O)(Nc1ccc(N2CCOCC2)cc1)c1cc(Cl)ccc1Cl	.	-2.4	.	9	.
NC(=O)c1ccc(CN2CCC(Cc3ccccc3)CC2)cc1	6%	-0.4	-3	-3	.
CCCOC(=O)c1ccc(Nc2nc(C)cc(=O)[nH]2)cc1	46%	-2.1	7	62	-18
CSC1=NC(C)(C)CC2(C)Nc3ccccc3N12 (stereo not given)	11%	-0.4	-13	-7	-5
CCOC(=O)N1CCC(N(CCN(C)C)C(=S)Nc2cccc(SC)c2)CC1	2%	-4.3	14	-10	.
O=C(Nc1nc2ccccc2s1)NC1CCCCC1	51%	1.9	24	100	.
CCN(CC)CCNC(=O)CSc1c2c(nc3cc(Cl)ccc13)CCCC2	-5%	35*	-33	1	.
CN(/C(=N/S(=O)(=O)c1cccs1)c1ccccc1)c1ccc(O)cc1	-1%	-1.6	6	-9	.
Cn1c(=O)c2c(nc(CN3CCCCC3)n2Cc2c(F)cccc2Cl)n(C)c1=O	7%	.	10	-4	.	Arbovirus inh repeat=3
Clc1ccc(-c2nc(N3CCOCC3)nc3ccccc23)cc1	.	-21	.	1	.
Cc1nc2cc(F)ccc2n1C1CCN(C(=O)c2c(F)cccc2F)CC1	0%	-2.0	1	1	.
O=C1CSC(c2cccnc2)N1C1CCCCC1 (stereo not given)	-7%	2.0	3	-6	-44
CCNC(=S)Nc1ccc2cn[nH]c2c1	0%	4.5	8	5	-7
CCS(=O)(=O)Nc1ccc(-c2nnc(SCC(=O)c3ccc(NC(C)=O)c(OC)c3)o2)cc1	.	-1.1	6	-1	-22
CCn1c(SCC(=O)NCc2ccccc2)nc2ccccc2c1=O	-1%	-2.1	0	3	-12
Cc1ncc(CN2CCCC(CCC(=O)NCc3ccccc3F)C2)s1 (stereo not given)	-7%	-0.6	-12	-4	.
CCOC(=O)c1ccc(N2CN=C3SCC(=O)N3C2)cc1	12µM*	-3.0	0	97	-57
O=C1ON=C(c2ccccc2)/C1=C\c1ccco1	-11%	2.8	.	2	.
CC1CC(C)CN(C(=O)c2ccc3nc[nH]c3c2)C1 (stereo not given)	.	-4.7	.	-4	.
CCOC(=O)c1sc(NC(=O)Nc2cccc(Cl)c2)cc1C	6%	1.6	-20	7	-15
Cc1cc(OCC(O)CN2CCN(c3ccccn3)CC2)cc(C)c1Cl (stereo not given)	.	4.4	.	10	.
O=C(CSc1nc2cccnc2n1Cc1ccccc1)N1CCCC1	-6%	0.1	3	1	-86
O=C(N/N=C/C=C/c1ccccc1)c1cc2c(ccc3ccccc32)o1	-6%	-3.6	1	14	-36

In the list so far, these contain fluorine:
SMILES	Mtb H37Rv	RecA intein inh	Arbovirus inh	Mtb betalactam	YopH inh	others
Cc1nnc(NC(=O)CSc2nnc(CCNC(=O)c3ccccc3F)n2C)s1	.	-32	.	7	.
O=C(Cn1c2ccc(F)cc2c2nc3n(c(=O)c21)CCS3)Nc1ccccc1C(F)(F)F	9%	1.0	10	-5	.
CCOc1ccc(NC(=O)c2cc3n(n2)C(C(F)(F)F)CC(c2ccco2)N3)cc1 (stereo not given)	1%	-1.1	-3	10	-3
FC(F)(F)c1cccc(NC(=S)NNC(=S)NCc2ccccc2)c1	5%	-2.2	-9	11	-32
Cn1c(=O)c2c(nc(CN3CCCCC3)n2Cc2c(F)cccc2Cl)n(C)c1=O	7%	.	10	-4	.	Arbovirus inh repeat=3
Cc1nc2cc(F)ccc2n1C1CCN(C(=O)c2c(F)cccc2F)CC1	0%	-2.0	1	1	.
Cc1ncc(CN2CCCC(CCC(=O)NCc3ccccc3F)C2)s1 (stereo not given)	-7%	-0.6	-12	-4	.

The listing continues:
SMILES	Mtb H37Rv	RecA intein inh	Arbovirus inh	Mtb betalactam	YopH inh	others
CCN(CC)CCOC(=O)c1c(C)oc2ccc(OC)cc12	2%	0.5	6	0	-31
COCC(C)NS(=O)(=O)c1ccc(C)cc1 (stereo not given)	-1%	25	-3	-6	-8
O=C(N/N=C/C=C\c1cccc([N+](=O)[O-])c1)c1cccnc1	-5%	0.2	.	-5	.
COc1ccccc1NC(=S)N1CCC(c2nc3ccccc3o2)CC1	4%	3.5	-2	-10	-8
Brc1ccc(CNc2nc3ccccc3n2CCN2CCCCC2)cc1	18%	.	.	-5	.
O=C(CN(CCc1ccccc1)C(=O)c1csnn1)NC1CCCC1	0%	1.1	5	0	.
COc1cc2cc3c(N)c(C(=O)NCc4ccco4)sc3nc2cc1OC	8%	-3.6	-38	9	-25
CNC(=S)N/N=C/c1ccccc1OCC(=O)O	1%	-1.7	.	-5	.
Cc1cccc(NC(=O)Cn2cnc(S(=O)(=O)N3CCCC3)c2)c1C	.	-1.4	.	3	.
Cc1cc(C)n(C(=O)c2cc3sccc3[nH]2)n1	-2%	2.7	5	1	-43
CC(=O)Nc1ccc(S(=O)(=O)N2CCCc3ccccc32)cc1	-2%	-0.1	-14	12	-11
Cc1ccccc1-c1nc2ccccc2c(=O)n1C	.	7.6	.	-10	.
COc1ccccc1OCC(=O)N1CCCC(N2CCN(c3ccc(F)cc3)CC2)C1 (stereo not given)	.	-2.0	.	-6	.
COc1ccc(S(=O)(=O)N2CCC(Cc3ccccc3)CC2)cc1NC(C)=O	.	-2.0	.	-3	.
COc1ccccc1NC(=O)N1CCCC1C(=O)Nc1ccc2c(c1)OCCO2 (stereo not given)	2%	.	0	-1	.
O=C(Cc1ccccc1)Nc1nonc1NC(=O)c1ccccc1	-7%	0.9	8	6	-45
NS(=O)(=O)c1ccc(CNC(=O)c2ccccc2SCC(=O)N2CCCC2)cc1	.	4.6	.	-1	.
NS(=O)(=O)c1ccc(CCNC(=O)Cc2cccs2)cc1	.	2.3	.	0	.
C=C(C)Cn1cnc2c(oc3nc4c(cc32)CCCC4)c1=O	1%	-1.4	.	69	.
Cc1ccc(S(N)(=O)=O)c(C)c1N1CCCC1=O	-4%	-1.0	4	1	.
O=[N+]([O-])c1ccc(CSc2ccccn2)cc1	.	1.8	.	2	.
CN1CC(=O)N2Cc3[nH]c4ccccc4c3C[C@H]2C1=O	.	-0.2	.	0	.
Cc1ccc(C2C(C(=O)c3sc(C)nc3C)=C(O)C(=O)N2CCN(C)C)o1 (stereo not given)	-6%	-1.7	4	6	-6
COc1ccc(CC2C(=O)N(c3ccccc3)C(=O)N(c3ccccc3)C2=O)c(OC)c1	-11%	5.2	-2	5	-21
CC(C)c1cc(CN2CCN(C3CCCC3)C(CCO)C2)[nH]n1 (stereo not given)	-1%	-0.1	17	-10	.
Cc1ccnc(N2CCC(C(=O)NNC(=O)COc3cccc4ccccc34)CC2)n1	.	-3.8	-6	-2	-29
CC(=O)c1ccc2c3c(cccc13)CC2	-8%	1.0	-2	3	-6
COC(=O)CCN(C(=O)c1ccc(N2CCCC2)c([N+](=O)[O-])c1)c1ccccn1	2%	-0.9	-3	5	.
CCCn1c(SCc2ccon2)nc2ccccc2c1=O	19%	-1.2	7	63	-23
O=C(CC1C(=O)NCCN1Cc1ccc(-c2ccccc2)cc1)NCCc1ccccn1 (stereo not given)	-4%	3.1	6	11	.
Cc1ccccc1NS(=O)(=O)CCCCC(Cl)(Cl)Cl	11%	3.0	17	-3	.
CC(C)OC(=O)/C(=C\c1cccc2ccccc12)NC(=O)c1ccccc1	12%	7.6	6	13	-52
CC1(C)CC(=O)c2ccc(O)cc2O1	-1%	1.9	7	-7	.
Cc1ccc(S(=O)(=O)N2CCCCC2)cc1NC(=O)Cn1ccsc1=N	3%	-0.5	2	-2	.
Cc1ccc2nc(SCC(=O)NCc3ccccc3)nc(=O)n2c1	.	1.3	.	-13	.
CCOC(=O)CSc1nc2c(c(=O)n1-c1ccc(OC)cc1)SCC2	4%	-1.5	4	5	-4	Arbovirus inh repeat=0
Cc1nn(CC(=O)Nc2ccc3nc4n(c(=O)c3c2)CCCC4)c(C)c1[N+](=O)[O-]	.	4.5	.	-6	.
CCCCN(Cc1cccs1)S(=O)(=O)c1ccc(-c2ccc(=O)[nH]n2)s1	.	6.7	.	8	.
O=C(CCNS(=O)(=O)c1ccccc1C(F)(F)F)NNC(=O)C1COc2ccccc2O1 (stereo not given)	.	0.5	.	1	.
Cc1cccc(-n2cc(CN3CCN(C(=O)c4ncn[nH]4)CC3)c(-c3cccc(F)c3)n2)c1	41%	16	-11	66	.

Reprinted at random: 2 entries already listed
SMILES	Mtb H37Rv	RecA intein inh	Arbovirus inh	Mtb betalactam	YopH inh	others
CCCOC(=O)c1ccc(Nc2nc(C)cc(=O)[nH]2)cc1	46%	-2.1	7	62	-18
Brc1cccc(CNn2cnnc2)c1	.	1.7	.	-12	.
